Vaccinia inh = Vaccinia orthopox stage-specific inhibition; 89,000 tested, 0.01% active; Vaccinia-infected cells, mCherry/Venus stage reporter fluorescence; stronger effect = lower value; some inactives read as strong as hits; activity change (mCherry), % (concentration not given with the values);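 active = mCherry past -33% and 40 or more points under the early reporter, replicates agreeing; inconclusive = past -33% without that gap or agreement; tested in A549 cells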;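 note: scaled between vehicle wells and reference inhibitor wells; 23 nL library stock went into each well; one replicate is shown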
Vaccinia inh Venus = recorded beside Vaccinia inh, whose call it bears; activity change (Venus), %; measured here: Venus reporter, other viral stage;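 negative = less Venus signal; first of two replicates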
* hit, by the source's call; ? = inconclusive; . = not tested or not shown. Some of the compounds tested. The share of hits here may be higher or lower than overall.

SMILES	Vaccinia inh	Vaccinia inh Venus
COc1ccccc1-c1cn(CC[C@@H]2CC[C@H](NS(=O)(=O)c3ccccc3C)[C@@H](CO)O2)nn1	-4	9
CC(=O)N(C)C[C@H]1Oc2cc(C#CC(C)C)ccc2S(=O)(=O)N([C@@H](C)CO)C[C@@H]1C	-11	-3
COC(=O)[C@H]1[C@H](CO)[C@H]2Cn3c(ccc(-c4ccccc4)c3=O)[C@H]2N1CCc1ccccc1	-15	-7
O=C(N[C@H]1CC[C@@H](CCn2cc(-c3ccccn3)nn2)O[C@@H]1CO)c1ccccc1	15	8
C[C@H](CO)N1C[C@H](C)[C@@H](CN(C)C(=O)c2ccccc2)Oc2cc(/C=C/c3ccccc3)ccc2S1(=O)=O	-19	-19
CCC(=O)N1CC[C@@H]2[C@@H](CO)Nc3ccc(-c4ccc(F)cc4)cc3[C@@H]21	-2	-14
CCNC(=O)[C@@H]1[C@@H](CO)[C@@H]2Cn3c(cccc3=O)[C@H]1N2C(=O)c1ccc(F)cc1	27	19
C[C@H](O)C#Cc1cnc2c(c1)C(=O)N([C@@H](C)CO)C[C@@H](C)[C@H](CN(C)CC1CCCC1)O2	4	5
CO[C@@H](CN(C)C(=O)C1CCOCC1)[C@H](C)CN([C@@H](C)CO)S(=O)(=O)c1ccccc1	14	12
C[C@@H]1CCCCO[C@@H](CN(C)C)[C@@H](C)CN([C@H](C)CO)C(=O)c2cc(NC(=O)C3CCCCC3)ccc2O1	-4	-4
C[C@H](CO)N1C[C@H](C)[C@@H](CN(C)C(=O)CCC(F)(F)F)OCCCC[C@H](C)Oc2ccc(NS(=O)(=O)c3ccc(F)cc3)cc2C1=O	-22	-19
COc1ccc2c3c(n(C)c2c1)[C@H](CO)N(C(=O)NC(C)C)CC31CN(C(=O)NC(C)C)C1	10	3
O=C(C[C@H]1C=C[C@H](NC(=O)c2cccnc2)[C@H](CO)O1)NCc1ccncn1	14	4
O=C(Nc1cccc(F)c1)N1CCCCN2[C@H](C1)[C@H](c1ccc(C#Cc3cccnc3)cc1)[C@@H]2CO	?	.
CS(=O)(=O)N1[C@@H]2c3ccc(-c4ccc(F)cc4)c(=O)n3C[C@H]1[C@H](CO)[C@H]2C(=O)NCC1CC1	15	7
CNC[C@H]1Oc2cc(C#CC3(O)CCCC3)ccc2S(=O)(=O)N([C@H](C)CO)C[C@H]1C	14	14
C[C@@H]1CN([C@@H](C)CO)C(=O)c2cc(C3=CCCC3)cnc2O[C@@H]1CN(C)Cc1ccccn1	4	8
CN1CCCCN2[C@H](CO)[C@H](c3ccc(C4=CCCC4)cc3)[C@H]2C1	-15	-14
CN(C)Cc1cn(CC[C@@H]2CC[C@@H](NS(=O)(=O)c3ccccc3)[C@H](CO)O2)nn1	10	3
C[C@@H]1CN([C@@H](C)CO)C(=O)c2cc(C#CCN(C)C)cnc2O[C@@H]1CN(C)C(=O)NC1CCCCC1	27	0
Cc1noc(C)c1NC(=O)Nc1ccc2c(c1)C(=O)N([C@H](C)CO)C[C@@H](C)[C@H](CN(C)Cc1ccc(Cl)c(Cl)c1)OCCCC[C@@H](C)O2	?	.
N#C[C@@H]1[C@H](c2ccccc2)[C@H](CO)N1S(=O)(=O)Cc1ccccc1	5	-6
C[C@H](CO)N1C[C@H](C)[C@H](CN(C)CC2CCCCC2)Oc2ccc(NC(=O)Cn3cnnn3)cc2C1=O	13	11
CCS(=O)(=O)N1Cc2cc(C(=O)O)nc(-c3cccc(-c4ccc(C#N)cc4)c3)c2[C@H]1CCO	14	15
COc1ccc(S(=O)(=O)N(C)C[C@H]2Oc3ccc(NS(=O)(=O)c4c(C)noc4C)cc3CC(=O)N([C@H](C)CO)C[C@H]2C)cc1	16	5

Continued:
SMILES	Vaccinia inh	Vaccinia inh Venus
CO[C@H](CN(C)Cc1cc(F)ccc1F)[C@H](C)CN(C(=O)Nc1ccc(F)cc1)[C@H](C)CO	4	7
COc1ccccc1CN1[C@H](CO)[C@@H]2c3ccccc3N(C(=O)C3CCOCC3)C[C@@H]21	-1	0
CCC(=O)N1CC(=O)N2[C@H](CO)[C@@H](c3ccc(C#Cc4cccc(F)c4)cc3)[C@@H]2C1	-25	-27
O=C(C1CCC1)N1CC(=O)N2[C@H](C1)[C@@H](c1ccc(Br)cc1)[C@@H]2CO	4	8
C/C=C/c1cnc2c(c1)C(=O)N([C@H](C)CO)C[C@H](C)[C@@H](CN(C)CC1CCOCC1)O2	27	17
COCC(=O)N(C)C[C@@H]1Oc2cc(-c3cccnc3)ccc2S(=O)(=O)N([C@@H](C)CO)C[C@@H]1C	12	4
CC(=O)N(C)C[C@@H]1Oc2cc(C#CC(C)(C)O)ccc2S(=O)(=O)N([C@@H](C)CO)C[C@H]1C	8	4
C[C@@H]1CCCCO[C@H](CN(C)S(=O)(=O)c2cccs2)[C@H](C)CN([C@@H](C)CO)C(=O)c2cc(NC(=O)CCCN(C)C)ccc2O1	-12	-12
C/C=C/c1ccc([C@H]2[C@@H](CO)N3CCCCN(S(=O)(=O)c4ccccc4)C[C@@H]23)cc1	-2	-1
C[C@H](CO)N1C[C@H](C)[C@@H](CN(C)S(=O)(=O)c2ccccc2)Oc2ncc(C#CCN(C)C)cc2C1=O	-4	-5
N#Cc1ccc(-c2ccc3c(c2)[C@H]2[C@H](CCN2C(=O)C2CC2)[C@H](CO)N3)cc1	-30	-19
COc1ccc2c3c(n(C)c2c1)[C@@H](CO)N(Cc1ccccc1)CC31CCN(C(=O)C2CC2)CC1	-5	-8
C[C@@H]1CN([C@@H](C)CO)C(=O)c2cc(NC(=O)c3ccncc3)ccc2O[C@H]1CN(C)Cc1ccc(Cl)c(Cl)c1	?	.
C[C@@H]1CN([C@@H](C)CO)C(=O)Cc2cc(NC(=O)Nc3ccc(F)cc3)ccc2O[C@@H]1CN(C)S(=O)(=O)c1cccs1	10	8
C[C@@H]1CN([C@H](C)CO)C(=O)CCCn2nncc2CO[C@H]1CN(C)S(=O)(=O)c1ccc(Oc2ccccc2)nc1	-8	2
CO[C@H]1CC[C@@H]2CCOc3c(C#N)cccc3C(=O)N(C)[C@@H](C)C(=O)N(C)C[C@H]1O2	13	3
Cc1ccc(S(=O)(=O)N(C)C[C@H]2Oc3ccc(NC(=O)Cc4ccccc4)cc3CC(=O)N([C@H](C)CO)C[C@@H]2C)cc1	-17	-21
COc1ccc(NC(=O)Nc2ccc3c(c2)C(=O)N([C@@H](C)CO)C[C@@H](C)[C@H](CN(C)Cc2ccc(C(=O)O)cc2)OCCCC[C@@H](C)O3)cc1	17	12
Cc1cc(C(=O)Nc2cccc3c2O[C@H](CN(C)S(=O)(=O)c2cccs2)[C@@H](C)CN([C@@H](C)CO)C3=O)n(C)n1	15	13
O=C(N[C@H]1CC[C@H](CCn2cc(-c3ccccc3)nn2)O[C@@H]1CO)c1cnccn1	0	2
COc1cccc(NC(=O)Nc2ccc3c(c2)C(=O)N(C)C[C@@H](OC)[C@@H](C)CN[C@@H](C)CO3)c1	2	17
O=C(N[C@@H]1CC[C@H](CCn2cc(Cc3ccccc3)nn2)O[C@@H]1CO)c1ccccn1	1	6
C[C@@H]1CN([C@H](C)CO)S(=O)(=O)c2ccc(C#CCC3CCCC3)cc2O[C@H]1CN(C)C(=O)c1ccccn1	?	.
C[C@@H]1CN([C@@H](C)CO)C(=O)Cc2cc(NC(=O)Nc3ccccc3)ccc2O[C@@H]1CN(C)C(=O)NC1CCCCC1	11	15
Cc1noc(C)c1NC(=O)Nc1ccc2c(c1)C(=O)N([C@@H](C)CO)C[C@H](C)[C@H](CN(C)C(=O)NC(C)C)OCCCC[C@H](C)O2	17	5

An excerpt of these results, with values under each structure.
Values run as follows: Vaccinia inh	Vaccinia inh Venus
COc1ccccc1-c1cn(CC[C@@H]2CC[C@H](NS(=O)(=O)c3ccccc3C)[C@@H](CO)O2)nn1
    -4	9
CC(=O)N(C)C[C@H]1Oc2cc(C#CC(C)C)ccc2S(=O)(=O)N([C@@H](C)CO)C[C@@H]1C
    -11	-3
COC(=O)[C@H]1[C@H](CO)[C@H]2Cn3c(ccc(-c4ccccc4)c3=O)[C@H]2N1CCc1ccccc1
    -15	-7
O=C(N[C@H]1CC[C@@H](CCn2cc(-c3ccccn3)nn2)O[C@@H]1CO)c1ccccc1
    15	8
C[C@H](CO)N1C[C@H](C)[C@@H](CN(C)C(=O)c2ccccc2)Oc2cc(/C=C/c3ccccc3)ccc2S1(=O)=O
    -19	-19
CCC(=O)N1CC[C@@H]2[C@@H](CO)Nc3ccc(-c4ccc(F)cc4)cc3[C@@H]21
    -2	-14
CCNC(=O)[C@@H]1[C@@H](CO)[C@@H]2Cn3c(cccc3=O)[C@H]1N2C(=O)c1ccc(F)cc1
    27	19
C[C@H](O)C#Cc1cnc2c(c1)C(=O)N([C@@H](C)CO)C[C@@H](C)[C@H](CN(C)CC1CCCC1)O2
    4	5
CO[C@@H](CN(C)C(=O)C1CCOCC1)[C@H](C)CN([C@@H](C)CO)S(=O)(=O)c1ccccc1
    14	12
C[C@@H]1CCCCO[C@@H](CN(C)C)[C@@H](C)CN([C@H](C)CO)C(=O)c2cc(NC(=O)C3CCCCC3)ccc2O1
    -4	-4
C[C@H](CO)N1C[C@H](C)[C@@H](CN(C)C(=O)CCC(F)(F)F)OCCCC[C@H](C)Oc2ccc(NS(=O)(=O)c3ccc(F)cc3)cc2C1=O
    -22	-19

Going on with the list.
SMILES	Vaccinia inh	Vaccinia inh Venus
CCC(=O)N1CCCCN2[C@H](CO)[C@H](c3ccc(/C=C/c4ccccc4)cc3)[C@H]2C1	?	.
C[C@H](CO)N1C[C@H](C)[C@@H](CN(C)S(=O)(=O)c2ccc(F)cc2)OCCCC[C@H](C)Oc2ccc(NC(=O)NC3CCCCC3)cc2C1=O	-20	-10
C[C@@H]1CN([C@H](C)CO)C(=O)c2cc(NS(C)(=O)=O)ccc2O[C@@H](C)CCCCO[C@@H]1CN(C)S(=O)(=O)c1ccc(F)cc1	21	12
COc1ccc(NC(=O)N(C)C[C@H]2Oc3ccc(NC(=O)Cn4cnnn4)cc3C(=O)N([C@H](C)CO)C[C@@H]2C)cc1	17	10
COc1ccc(OC(=O)N(C)C[C@H]2OCc3ccccc3-c3c(n(C)c4ccccc34)C(=O)N([C@@H](C)CO)C[C@@H]2C)cc1	?	.
Cc1noc(C)c1NC(=O)N(C)C[C@H]1OCCCC[C@@H](C)Oc2ccc(NC(=O)C3CCCCC3)cc2C(=O)N([C@H](C)CO)C[C@@H]1C	15	2
CCC(=O)N1CCCCN2[C@H](C1)[C@H](c1ccc(C#Cc3ccccc3)cc1)[C@@H]2CO	?	.
COc1ccc(CNC(=O)C[C@H]2C[C@@H]3c4cc(NC(=O)NC5CCCC5)ccc4O[C@@H]3[C@H](CO)O2)cc1	12	15
C[C@@H]1CN([C@H](C)CO)C(=O)c2cc(NS(C)(=O)=O)ccc2O[C@@H](C)CCCCO[C@@H]1CN(C)S(=O)(=O)c1cccs1	18	9
Cc1ccc(S(=O)(=O)N(C)C[C@H]2Oc3c(NC(=O)NC(C)C)cccc3C(=O)N([C@@H](C)CO)C[C@H]2C)cc1	-2	1
CO[C@H]1CN(C)C(=O)c2cc(NC(=O)C3CC3)ccc2OC[C@@H](C)N(C(=O)c2ccccc2F)C[C@@H]1C	-3	4
Cc1noc(C)c1NC(=O)Nc1ccc2c(c1)CC(=O)N([C@@H](C)CO)C[C@H](C)[C@@H](CN(C)Cc1ccc(C(=O)O)cc1)O2	-3	0
Cc1nn(C)cc1NC(=O)C[C@H]1CC[C@@H]2[C@H](COc3ccc(NC(=O)C4CCOCC4)cc3C(=O)N2C)O1	2	5
C[C@H](CO)N1C[C@H](C)[C@H](CN(C)Cc2ccc3c(c2)OCO3)Oc2c(NS(=O)(=O)c3cn(C)cn3)cccc2C1=O	12	4
CCC(=O)N1C[C@@H](C)[C@@H](OC)CN(C)C(=O)c2cc(NS(C)(=O)=O)ccc2OC[C@H]1C	11	2
C[C@H]1CN([C@@H](C)CO)C(=O)c2cc(NC(=O)Nc3ccc(C(F)(F)F)cc3)ccc2O[C@H]1CN(C)C(=O)Nc1ccccc1	-20	-12
CO[C@H]1CN(C)C(=O)c2ccc(NC(=O)C3CC3)cc2OC[C@@H](C)N(C(=O)c2ccccc2F)C[C@H]1C	11	5
C[C@H]1CN([C@@H](C)CO)C(=O)c2cccc(NC(=O)CCCCCC(=O)Nc3ccccc3N)c2O[C@H]1CN(C)C	18	10
O=C(C[C@H]1CC[C@H]2[C@@H](COC[C@@H](O)CN2Cc2cc(F)ccc2F)O1)NCc1ccccc1	16	6
CCS(=O)(=O)Nc1ccc2c(c1)C(=O)N(C)[C@H]1CC[C@H](CC(=O)N3CCOCC3)O[C@@H]1CO2	10	7
O=C(c1ccc2c(c1)OCO2)N1CCCCN2[C@H](CO)[C@H](c3ccc(-c4ccccc4)cc3)[C@@H]2C1	-20	-21
Cc1ccccc1NC(=O)Nc1ccc2c(c1)C(=O)N(C)[C@H]1CC[C@H](CC(=O)NCC3CC3)O[C@@H]1CO2	-2	-1
C[C@H](NC(=O)[C@H]1[C@H](CO)[C@H]2Cn3c(ccc(C4=CCCCC4)c3=O)[C@H]2N1C)c1ccccc1	-17	-7
C[C@@H]1CN([C@@H](C)CO)C(=O)c2cc(NC(=O)c3ccncc3)ccc2O[C@@H]1CN(C)Cc1ccncc1	?	.
CCC(=O)N(C)C[C@@H]1Oc2ncc(C#CC3(O)CCCC3)cc2C(=O)N([C@@H](C)CO)C[C@H]1C	18	4
C[C@@H]1CN([C@H](C)CO)C(=O)c2cccc(NC(=O)CCCCCC(=O)Nc3ccccc3N)c2O[C@@H]1CN(C)CC1CC1	18	10
C[C@@H]1CN([C@H](C)CO)S(=O)(=O)c2ccc(C3=CCCCC3)cc2O[C@@H]1CN(C)S(=O)(=O)c1cn(C)cn1	-24	-22
CNC[C@H]1Oc2c(NC(=O)NC3CCCCC3)cccc2C(=O)N([C@@H](C)CO)C[C@H]1C	8	13
O=C(NCC[C@@H]1CC[C@H](NS(=O)(=O)c2ccc(F)cc2)[C@H](CO)O1)Nc1ccc(F)cc1	-3	-5
C[C@@H]1CN([C@H](C)CO)C(=O)c2cc(-c3ccccc3F)cnc2O[C@H]1CN(C)Cc1cccc(F)c1	?	.

Assay outcomes deposited in PubChem BioAssay by Broad Institute.
